Assay outcomes: PubChem BioAssay, National Center for Advancing Translational Sciences (NCATS)
nsP2pro inh: CHIKV nsP2 protease inhibition, primary qHTS | FRET peptide cleavage, nsP2pro, fluorescence 1 h | Potency, µM (titrated, usually from 24.9 µM), inactives show at the highest dose activity change, negative = inhibition, hits mostly inhibitors | 1.1% of 31,000 active | AID 1964107; active means well fitted inhibition curve with a large enough effect; inconclusive means small, poorly fitted or top-dose-only effect; inactive means no such curve, though single readings can be large or run the other way; note: nearly all actives have a fitted effect of over 60% in size; a reference inhibitor and vehicle were the controls
Numbers without * were called inactive; & = joins results of further samples; [ ] = remark or other dose. % is set by controls: 0 for no effect and ±100 for the full control effect; potency is the fitted concentration of half-maximal effect. The list is partial (hit frequency here may not be typical).

How did CC(C)c1nn2c(=O)cc(COC(=O)c3ccc(NC(=O)c4cccs4)cc3)nc2s1 do in these assays?
nsP2pro inh: -7.0%

How did Cc1[nH]n2c(=O)cc(-c3ccccc3Cl)nc2c1-c1ccccc1 do in these assays?
nsP2pro inh: 161.5%[activator]

Results for COc1ccc2cc3c(N)nn(C(=O)c4ccccc4Cl)c3nc2c1 ?
nsP2pro inh: -5.9%

Results for COc1cc(NC(=O)c2cccc3c2C(=O)N(C2CCCCC2)C3)cc(OC)c1 ?
nsP2pro inh: -29.0%

What do the screens show for `CCOc1ccc(NS(=O)(=O)c2ccc3[nH]cc(C(=O)NCc4ccco4)c(=O)c3c2)cc1`?
nsP2pro inh: -10.7%

How did Cc1ccc(C)c(NC(=O)CN2CCSc3ccc(S(=O)(=O)N4CCCC4)cc32)c1 do in these assays?
nsP2pro inh: -6.6%

How did CCOC(=O)C1CCCN(c2cc(C)nc3c(-c4ccccc4OC)c(C)nn23)C1 (stereo unspecified) do in these assays?
nsP2pro inh: -11.5%

What do the screens show for `O=C1c2ccccc2-c2c(NCCc3ccccc3)c(=O)[nH]c3cccc1c23`?
nsP2pro inh: 436.3%[activator]

Results for O=C(Nc1ccc(F)c(C(F)(F)F)c1)Nc1ccc(-c2ccncc2)s1 ?
nsP2pro inh: inconclusive

Results for Cc1cccc([C@H](C)c2cnc[nH]2)c1C ?
nsP2pro inh: 44.2%[activator]

Results for COc1ccc(-c2nn(-c3ccccc3C)cc2CN2C[C@@H](C)O[C@@H](C)C2)cc1F ?
nsP2pro inh: inactive

Results for COc1ccc(C2=Nn3c(nnc3-c3ccccc3C(F)(F)F)SC2)cc1OCC1CC1 ?
nsP2pro inh: inactive

How did CC(C)N1CCN(C(=O)C23CCCC=C2N(c2ccccc2)C(=O)CC3)CC1 (stereo unspecified) do in these assays?
nsP2pro inh: -6.0%

How did CC(=O)c1cccc(NC(=O)Nc2nnc(-c3ccncc3)s2)c1 do in these assays?
nsP2pro inh: 2.5%

What do the screens show for `N#C[C@@H]1C[C@H](F)CN1C(=O)CNC1[C@H]2CN(C(=O)c3ccc(F)cc3)C[C@@H]12` (stereo partly specified)?
nsP2pro inh: -2.0%

Results for N#Cc1ccc(NC(=O)Nc2nnc(-c3ccncc3)s2)cc1Cl ?
nsP2pro inh: 3.0%

How did Cc1cccc(NC(=O)c2nc(S(C)(=O)=O)ncc2Cl)c1 do in these assays?
nsP2pro inh: -77.8%

Results for COc1ccc(NC(=O)c2cnn3c(C)cc(C)nc23)cc1Cl ?
nsP2pro inh: -3.1%

How did COc1ccc(C2=Nn3c(nnc3-c3ccc(OC)cc3OC)SC2)cc1 do in these assays?
nsP2pro inh: -0.4%

How did CCOC(=O)c1ccc(NC(=O)c2cc3c(=O)n(C)c4ccccc4c3n2C)cc1 do in these assays?
nsP2pro inh: -9.8%

What do the screens show for `CCCOC(=O)Cc1ccc(OCC(=O)N(CC)CC)c(OC)c1`?
nsP2pro inh: 0.6%[10 µM]

Results for CCc1nc2cc(N3CCC(C(=O)O)CC3)cnc2nc1CC ?
nsP2pro inh: -9.2%

How did COc1ccc(C)cc1-n1cnc2cc(C(=O)NC3CCCC3)ccc21 do in these assays?
nsP2pro inh: -10.6%

What do the screens show for `Cc1cccc(NC(=O)CCn2nc(-c3ccccc3)c3ccccc3c2=O)c1`?
nsP2pro inh: -8.0%

How did O=C(NCC1(c2nc(-c3ccccc3)cs2)CCOCC1)c1cccc(-c2noc(C(F)(F)F)n2)c1 do in these assays?
nsP2pro inh: inconclusive

What do the screens show for `COc1ccc(CCNC(=O)CSc2cn(CCNC(=O)c3ccccc3F)c3ccccc23)cc1OC`?
nsP2pro inh: -14.6%

Results for CCOC(=O)c1cnc2ccc(C)cc2c1Nc1ccc(OCc2ccccc2Cl)cc1 ?
nsP2pro inh: -3.0%

What do the screens show for `CCO/C([O-])=N/c1c[n+](N2CCOCC2)no1`?
nsP2pro inh: -5.0%

Results for Cc1nc(NCCC2CCOC2)c2c(C)nn(C)c2n1 (stereo unspecified) ?
nsP2pro inh: 3.5%

How did N#Cc1ccc(N[S+](=O)([O-])c2ccc(Nc3nc(-c4ccccc4)cs3)cc2)cc1 do in these assays?
nsP2pro inh: 0.5%

How did O=C(c1cccnc1)N1CCC2(CC1)C(=O)NN=C2c1cccnc1 do in these assays?
nsP2pro inh: -0.2%

How did Cc1ccc(CN2CCCCCNC(=O)[C@@H]3CCC[C@@H]32)s1 do in these assays?
nsP2pro inh: -7.4%

How did CCC(Nc1ncnc2nc[nH]c12)c1nc2cccc(F)c2c(=O)n1-c1ccccc1 (stereo unspecified) do in these assays?
nsP2pro inh: 19.8%

What do the screens show for `COc1ccc(C2=Nn3c(nnc3-c3ccccc3F)SC2)cc1OCC1CC1`?
nsP2pro inh: inactive

How did O=C(CC[C@@H]1CNC(=O)[C@@H]2C[C@H](NC(=O)Nc3ccc(F)cc3F)CN12)NC1CC1 do in these assays?
nsP2pro inh: -5.7%[39.2 µM]

What do the screens show for `CCOc1ccc(-c2cc(C(=O)Oc3ccc(C#N)cc3)no2)cc1`?
nsP2pro inh: -13.8%

How did COC(=O)c1ccccc1NC(=O)c1nc(S(=O)(=O)Cc2cccc(C)c2)ncc1Cl do in these assays?
nsP2pro inh: -0.9%

How did COc1ccc(Cl)cc1NC(=O)Cn1c(=O)n(CCC(=O)NCc2ccc3c(c2)OCO3)c(=O)c2ccccc21 do in these assays?
nsP2pro inh: -16.3%

How did Cc1ccc(NC(=O)N2CCC3(CC2)CC(Cc2nc(-c4ccccc4)no2)CCO3)cc1C (stereo unspecified) do in these assays?
nsP2pro inh: 1.5%

What do the screens show for `NC(=O)COc1ccc(-c2noc(COc3ccc(Cl)cc3)n2)cc1`?
nsP2pro inh: -11.6%

Of the compounds above, 9 have a Cl atom.
How did Cc1[nH]n2c(=O)cc(-c3ccccc3Cl)nc2c1-c1ccccc1 do in these assays?
nsP2pro inh: 161.5%[activator]

Results for COc1ccc2cc3c(N)nn(C(=O)c4ccccc4Cl)c3nc2c1 ?
nsP2pro inh: -5.9%

Results for N#Cc1ccc(NC(=O)Nc2nnc(-c3ccncc3)s2)cc1Cl ?
nsP2pro inh: 3.0%

How did Cc1cccc(NC(=O)c2nc(S(C)(=O)=O)ncc2Cl)c1 do in these assays?
nsP2pro inh: -77.8%

Results for COc1ccc(NC(=O)c2cnn3c(C)cc(C)nc23)cc1Cl ?
nsP2pro inh: -3.1%

Results for CCOC(=O)c1cnc2ccc(C)cc2c1Nc1ccc(OCc2ccccc2Cl)cc1 ?
nsP2pro inh: -3.0%

How did COC(=O)c1ccccc1NC(=O)c1nc(S(=O)(=O)Cc2cccc(C)c2)ncc1Cl do in these assays?
nsP2pro inh: -0.9%

How did COc1ccc(Cl)cc1NC(=O)Cn1c(=O)n(CCC(=O)NCc2ccc3c(c2)OCO3)c(=O)c2ccccc21 do in these assays?
nsP2pro inh: -16.3%

What do the screens show for `NC(=O)COc1ccc(-c2noc(COc3ccc(Cl)cc3)n2)cc1`?
nsP2pro inh: -11.6%

Later entries:
How did O=C(Nc1ccc(Br)cc1)c1cc2nc(-c3ccccc3)cc(-c3ccccc3)n2n1 do in these assays?
nsP2pro inh: -20.0%

What do the screens show for `COc1ccc(C(=O)N[C@H](Cc2ccccn2)C2CC(O)C2)cc1F` (stereo partly specified)?
nsP2pro inh: -1.0%

Results for O=C1C=CC2OC(c3ccccc3)C(O)C2O1 (stereo unspecified) ?
nsP2pro inh: inconclusive

What do the screens show for `COc1cccc2c1OCCCN(Cc1cn(-c3ccccc3)nn1)C2`?
nsP2pro inh: inactive

Results for O=C(Nc1ccc2ccccc2c1)Nc1nnc(-c2cccnc2)s1 ?
nsP2pro inh: -4.8%

What do the screens show for `COc1ccc(C)c2sc(N(Cc3cccnc3)C(=O)COc3ccccc3)nc12`?
nsP2pro inh: -11.2%

What do the screens show for `N#CC(O[C@@H]1O[C@H](CO[C@@H]2O[C@H](CO)[C@@H](O)[C@H](O)[C@H]2O)[C@@H](O)[C@H](O)[C@H]1O)c1ccccc1` (stereo partly specified)?
nsP2pro inh: 0.9%[10 µM]

How did O=C1CCCC2=C1C1(CCCCC1)N=C(Nc1nc3ccccc3o1)N2 do in these assays?
nsP2pro inh: inactive

How did CCOc1ccc(S(=O)(=O)c2c(C(=O)c3ccc(CC)cc3)cnc3ccc(C)cc23)cc1 do in these assays?
nsP2pro inh: -10.0%

What do the screens show for `CN1CCN(c2cccc(Nc3nn4c(=O)c5ccccc5nc4s3)c2)CC1`?
nsP2pro inh: 4.4%&-1.0%

Results for O=C(c1cccs1)N1CCCc2cc(NS(=O)(=O)c3cc(F)ccc3F)ccc21 ?
nsP2pro inh: -16.0%

What do the screens show for `C=C1[C@@H](O)[C@]2(O)OC[C@]34C2[C@]2(C)C(C[C@H]3OC(=O)[C@H](O)[C@@]14O)C(C)=CC(=O)[C@H]2O` (stereo partly specified)?
nsP2pro inh: -10.3%[10 µM]

What do the screens show for `Cc1noc(C)c1-c1cc2cc(C(C)C)oc2c(-c2ccc(CO)cc2)n1`?
nsP2pro inh: inactive

Results for CC1=C(C(=O)Nc2ccc(Cl)cc2)C(c2ccccc2Br)N=C(Nc2nc3ccccc3o2)N1 (stereo unspecified) ?
nsP2pro inh: -1.0%

Results for Cn1ccnc1CNC[C@H]1Cn2cc(-c3ccccc3)nc2CO1 ?
nsP2pro inh: inactive

What do the screens show for `Cc1nc2c(NC3CCN(C(=O)c4cccn4C)CC3)cccn2n1`?
nsP2pro inh: -2.1%

Results for O=C(Cc1cccc(C(F)(F)F)c1)N[C@H]1CCOC[C@H]1C1CCOCC1 ?
nsP2pro inh: -9.2%

What do the screens show for `CC[C@H](C)[C@H]1O[C@]2(C=C[C@@H]1C)C[C@@H]1C[C@@H](C/C=C(\C)[C@@H](O[C@H]3C[C@H](OC)[C@@H](O[C@H]4C[C@H](OC)[C@@H](O)[C@H](C)O4)[C@H](C)O3)[C@@H](C)/C=C/C=C3\CO[C@@H]4[C@H](O)C(C)=C[C@@H](C(=O)O1)[C@]34O)O2`?
nsP2pro inh: 9.3%

What do the screens show for `CCc1nc2c(cnn2-c2ccc(C)cc2)c(=O)n1-c1ccc(C)cc1`?
nsP2pro inh: -11.5%

What do the screens show for `O=C(c1cccc(OC2CN(C3CCCCCC3)C2)c1)N1CCCC1`?
nsP2pro inh: inactive

Results for CCC(Sc1nc(-c2ccccc2F)nc2c1Cc1c(CO)cnc(C)c1O2)C(=O)Nc1cc(C)ccc1C (stereo unspecified) ?
nsP2pro inh: -18.4%

What do the screens show for `Cc1ccc(OCCn2c(CCNCC3CCCCC3)nc3ccccc32)cc1`?
nsP2pro inh: -3.9%

What do the screens show for `Cc1ccc(C)c(-c2csc(-c3c(N)c(C(=O)c4ccc5c(c4)OCO5)n4ccccc34)n2)c1`?
nsP2pro inh: -12.4%

Results for CC(=O)OCC(Cc1ccccc1)NC(=O)C(Cc1ccccc1)NC(=O)c1ccccc1 (stereo unspecified) ?
nsP2pro inh: -6.9%[10 µM]

What do the screens show for `Cc1cnc(-c2ccccc2)n1CCNC(=O)CCC1CCCC1`?
nsP2pro inh: inactive

How did CN[C@@H]1[C@@H](O)[C@@H](O[C@@H]2[C@H](O)[C@H](O[C@H]3OC(CN)=CC[C@H]3N)[C@@H](N)C[C@H]2N)OCC1(C)O (stereo partly specified) do in these assays?
nsP2pro inh: -3.5%

Results for CC(C)c1cnc2c(c1SCC(=O)c1ccc(Cl)cc1)c(=O)n(C)c(=O)n2C ?
nsP2pro inh: -18.1%

What do the screens show for `C[C@]1(Cn2ccnn2)[C@H](C(=O)O)N2C(=O)C[C@H]2S1(=O)=O`?
nsP2pro inh: -0.1%

Results for COc1cccc(-c2nc(CS(=O)(=O)CC(=O)N3CCN(c4cc(C)ccc4C)CC3)c(C)o2)c1 ?
nsP2pro inh: -12.7%

Results for CCC(=O)NC(c1ccc2c(c1)OCO2)c1cc(Cl)c2cccnc2c1O (stereo unspecified) ?
nsP2pro inh: inactive

How did COc1ccc(NC(=O)C(OC(=O)CNC(=O)c2ccccc2)c2ccccc2)cc1Cl (stereo unspecified) do in these assays?
nsP2pro inh: -5.8%

What do the screens show for `COc1cccc(Nc2cc3c(cn2)CN(Cc2cccnc2)CCN3)c1`?
nsP2pro inh: inactive

What do the screens show for `CCOc1ccc(OC(=O)c2c(-c3ccccc3Cl)noc2C)cc1`?
nsP2pro inh: -6.0%

What do the screens show for `Cc1ccc(C)c(NC(=O)CN2C(=O)C(c3ccccc3)=NC23CCCC3)c1`?
nsP2pro inh: inactive

How did Cc1nn(-c2ccccc2)c2c1C(C(C)C)N(C1CN([S+](C)(=O)[O-])C1)C2=O (stereo unspecified) do in these assays?
nsP2pro inh: inactive

How did Cc1ccc(CNc2nc3nc(C)c(Cl)c(C)n3n2)cc1 do in these assays?
nsP2pro inh: -14.2%

What do the screens show for `COc1cccc(CCC(=O)N2CCCCC2c2nc(-c3ccncc3)n[nH]2)c1` (stereo unspecified)?
nsP2pro inh: inactive

How did Cc1noc(C)c1S(=O)(=O)NCCC1CN(c2cnn(C)c(=O)c2)CCO1 (stereo unspecified) do in these assays?
nsP2pro inh: inactive

Results for CCc1nccn1Cc1nnc(C2CC(N)C2)n1CCOC (stereo unspecified) ?
nsP2pro inh: inactive

Results for O=C(Nc1ncc(Cc2ccc(C(F)(F)F)cc2)s1)c1ccc(-c2cccnc2)o1 ?
nsP2pro inh: inactive

Results for CCOC(=O)c1sc(NC(=O)c2nc(SCC)ncc2Cl)c(C(=O)OCC)c1C ?
nsP2pro inh: -3.6%

What do the screens show for `CSc1nn(Cc2ccc(F)cc2)c(N(C(C)=O)C(C)=O)c1S(=O)(=O)c1ccccc1`?
nsP2pro inh: -24.6%

Results for CCOCCCNC(=O)C(c1ccc(OC)cc1)N(Cc1cccs1)C(=O)c1ccccc1O (stereo unspecified) ?
nsP2pro inh: 0.6%

How did CCCCCCn1c(=O)c(C(=O)Nc2ccc(C(=O)OCCC)cc2)c(O)c2ccccc21 do in these assays?
nsP2pro inh: -7.0%[5.1 µM]
